HCMV NEC inh – cytomegalovirus nuclear egress complex inhibition | HTRF UL50-UL53 interaction, normalized percent inhibition | inhibition, % (test concentration not listed) | 190,000 compounds, 0.15% hits;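 active = both replicates at 50% or more, plus weaker picks with an unusually low signal ratio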;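 note: stock transfer was 100 nL into about 20 µL; 0% = negative control wells and 100% = wells with untagged competitor protein; inactives centre near -12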
GIV-Gai inh – blocks GIV peptide binding to rat Galpha-i3 | AID 1224905 | percent of control (FP), % (concentration not given with the values) | 210,000 compounds, 0.42% hits | P08753 | Galpha-i3/FITC-GIV peptide fluorescence polarization, 90 min; hits give low values; scaled: aluminum fluoride 0%, vehicle 100%;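 active = replicate mean at 85% of control or lower, very high polarization wells dropped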;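 note: wells of about 15 µL received 100 nL stock; the first replicate is given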
Target sequence (P08753 whole entry, looked up): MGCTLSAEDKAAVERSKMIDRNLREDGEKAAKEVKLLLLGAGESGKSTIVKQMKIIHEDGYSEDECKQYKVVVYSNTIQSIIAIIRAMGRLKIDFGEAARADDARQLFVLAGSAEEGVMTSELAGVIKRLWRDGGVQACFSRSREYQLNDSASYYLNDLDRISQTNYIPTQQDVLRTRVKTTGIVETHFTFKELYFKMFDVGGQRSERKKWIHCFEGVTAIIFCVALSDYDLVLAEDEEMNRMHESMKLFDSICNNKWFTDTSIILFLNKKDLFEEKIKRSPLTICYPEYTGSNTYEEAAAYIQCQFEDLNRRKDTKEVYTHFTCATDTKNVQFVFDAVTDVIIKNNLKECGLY
Sa growth 42C – blocks Staphylococcus aureus growth. 170,000 compounds, 0.53% hits. relative growth, % (no concentration beside the values). S. aureus RN4220 growth, OD600, 20 h, 42 °C; hits give low values;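 active = growth at 42 °C up to 50% and 20 or more points under that at 30 °C, or under 10% at both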;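 note: 300 nL library stock went into each well; scaled to the means of positive and negative controls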
Sa growth 42C second temp – further read-out of Sa growth 42C, marked with its call; relative growth, %; measured here: growth at 30 °C;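 optical density after 20 h as mean of two plates; 100% = untreated growth and lower means inhibition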
Starred values were filed as active, the others as inactive; · = not tested or not shown; & = joins results of further samples. Not a hit list; 0.83% or so of the library scored in one or more.

SMILES | HCMV NEC inh | GIV-Gai inh | Sa growth 42C | Sa growth 42C second temp
C=CCC(NCc1ccccc1)c1ccco1 (configuration not stated) | 0 | 102 | 103 | 80
Cc1ccc(NC(=O)/C(C#N)=C\c2ccc(-c3ccc(Cl)cc3)o2)c(C)c1 | -51 | 106 | 99 | 91
COC(=O)c1ccc2c(=O)[nH]c(COC(=O)c3cccnc3Nc3ccccc3OC)nc2c1 | -12 | · | 99 | 79
Cc1cc2c3c([nH]c2cc1S(=O)(=O)NCCCc1ccco1)CCCC3=O | -35 | 100 | 103 | 74
N#CCSc1nc2ccccc2c(=O)n1CCCC(=O)NCc1ccccc1 | 5 | 98 | 90 | 85
Cc1ccc(C(CC(=O)N2CCOCC2)c2ccccc2)c(O)c1C (configuration not stated) | 2 | 104 | 96 | 108
C=C(C)C(=O)Nc1ccc(O)c(-c2nc3ccccc3[nH]2)c1 | · | 104 | 119 | 96
COc1cccc(-c2nc3sc4c(c3c(=O)n2CC(=O)Nc2ccccc2C(F)(F)F)CCCC4)c1 | -14 | 100 | · | ·
C=Cc1ccc(CSc2nnc3n(CCCOC(C)C)c(=O)c4cc(Cl)ccc4n23)cc1 | -17 | 104 | · | ·
O=C(Oc1ccc(C2SCCS2)cc1)c1cccc(C(F)(F)F)c1 | -10 | · | 83 | 102
O=C(Nc1ccc(S(=O)(=O)Nc2nccs2)cc1)c1csnn1 | -6 | 101 | · | ·
Cc1ccc(NC(=O)Cn2cc(C(=O)C3CCCCC3)c3ccccc32)cc1 | -3 | 100 | 94 | 94
O=C(Nc1sc2c(c1C(=O)NCc1ccccc1)CCCC2)c1cc(=O)c2ccccc2o1 | -27 | 105 | 96 | 87
Cc1cccc(N2C(=O)CS(=O)(=O)C23C(=O)N(C)c2ccccc23)c1 (configuration not stated) | · | 106 | 85 | 89
CCCN(CCC)CCCNC(=O)c1cc2c(=O)n(C)c3ccccc3c2s1 | -21 | 107 | 97 | 97

A second format for four compounds above.
COc1cccc(-c2nc3sc4c(c3c(=O)n2CC(=O)Nc2ccccc2C(F)(F)F)CCCC4)c1
  HCMV NEC inh: -14	GIV-Gai inh: 100	Sa growth 42C: ·	Sa growth 42C second temp: ·
C=Cc1ccc(CSc2nnc3n(CCCOC(C)C)c(=O)c4cc(Cl)ccc4n23)cc1
  HCMV NEC inh: -17	GIV-Gai inh: 104	Sa growth 42C: ·	Sa growth 42C second temp: ·
O=C(Oc1ccc(C2SCCS2)cc1)c1cccc(C(F)(F)F)c1
  HCMV NEC inh: -10	GIV-Gai inh: ·	Sa growth 42C: 83	Sa growth 42C second temp: 102
O=C(Nc1ccc(S(=O)(=O)Nc2nccs2)cc1)c1csnn1
  HCMV NEC inh: -6	GIV-Gai inh: 101	Sa growth 42C: ·	Sa growth 42C second temp: ·

Going on with the list:
SMILES | HCMV NEC inh | GIV-Gai inh | Sa growth 42C | Sa growth 42C second temp
C/C(=N\NC(=O)Cn1nnc(-c2ccccc2)n1)c1nonc1C | -9 | 99 | 126 | 99
N#Cc1ccccc1NC(=O)CC1Sc2ccccc2NC1=O (configuration not stated) | -28 | 100 | 92 | 83
Cc1cc(C)c(Cn2c3ccccc3c3cnn(CC(=O)NC4CCCCCC4)c(=O)c32)c(C)c1 | 3 | 100 | 108 | 93
Cn1c(=O)c(-c2noc(C(=O)NCC3CCCO3)n2)nn(-c2ccccc2)c1=O (configuration not stated) | -125 | 104 | · | ·
COC(=O)c1cc(NC(=O)CCc2c(C)nc3cc(-c4ccccc4)nn3c2C)cc(C(=O)OC)c1 | 5 | 101 | 95 | 102
COc1ccc(CC(=O)Nc2ncn[nH]2)cc1 | -4 | 96 | 96 | 90
CCc1cc(/C(Cc2cscn2)=N\O)c(O)cc1O | -4 | · | 106 | 97
Cc1ccc(C)c(NS(=O)(=O)c2cc3c(cc2C)n(C)c(=O)c(=O)n3C)c1 | · | 103 | 121 | 88
CCOC(=O)c1cn(CC(C)C)c(=O)c2ccccc12 | 1 | 104 | 95 | 80
COc1ccc(-c2nnc(SC)n2-c2ccccc2)cc1 | 0 | · | 110 | 102
C/C(=C/C(=O)C(F)(F)F)N1CCc2ccccc2C1 | 17 | · | 101 | 97
CCCn1c(=O)c2ccc(C(=O)NC(C)C)cc2n2c(=O)n(CC(=O)Nc3ccccc3CC)nc12 | -41 | 107 | · | ·
O=S(=O)(Nc1cccc(Cl)c1)c1ccc2[nH]c3c(c2c1)CCCCCC3 | · | 105 | 88 | 90
CCC(C)NC(=O)C1CCCN(C(=O)c2[nH]c(C)c(C(=O)OC(C)C)c2C)C1 (configuration not stated) | -23 | 101 | · | ·
CCOC(=O)c1c(C)oc2nc(COc3ncnc4c3cnn4-c3ccccc3)nc(N)c12 | -28 | · | 81 | 98
Cc1nnc(N2C(=O)C3C4C=CC(C4)C3C2=O)s1 (configuration not stated) | -28 | 104 | 110 | 101
CCOc1ccc(NC(=O)c2cc(=O)c3cc(CC)ccc3o2)cc1 | -16 | 101 | 99 | 91
N#CC1=C(c2ccc(Cl)cc2)COC1=O | -37 | 139 | 82 | 61
NC(=O)NC(CC(=O)Nc1ccc(S(N)(=O)=O)cc1)c1ccccc1Cl (configuration not stated) | -4 | · | 85 | 96
O=C(CCSc1nnc(-c2ccncc2)o1)Nc1ccccc1 | -20 | 105 | 85 | 81
CCOc1ccc(S(=O)(=O)Nc2cccc(-c3cn4cccc(C)c4n3)c2)cc1 | · | 106 | 104 | 91
O=c1[nH]nc(Sc2ncn[nH]2)c(=O)[nH]1 | -22 | · | 81 | 88
COc1cccc(-c2cc(C(F)(F)F)nc(NCCc3ccc(OC)c(OC)c3)n2)c1 | -7 | 97 | 84 | 78
CO[C@H]1C[C@H](O[C@H]2[C@H](C)[C@@H](OC3O[C@H](C)C[C@H](N(C)C)[C@H]3O)[C@@H](C)C[C@]3(CO3)C(=O)[C@H](C)[C@@H](O)[C@@H](C)[C@@H](C)OC(=O)[C@@H]2C)O[C@@H](C)[C@@H]1O (some centres not stated) | -33 | · | -0.6* | -0.3*
COC(=O)c1ccc(CSc2nc3c([nH]c4ccccc43)c(=O)n2-c2ccc(Cl)cc2)o1 | · | 109 | 118 | 100
O=C(Nc1ccc(S(=O)(=O)NC2=NCCCCC2)cc1)C1=NN(c2ccccc2)C(=O)CC1 | -18 | · | 105 | 95
COc1ccc(N(C)S(=O)(=O)c2ccc3c(c2)CCN3C(=O)CCC(=O)O)cc1 | -37 | 99 | 100 | 87
Oc1ccccc1Nc1nc2ccccc2n2nnnc12 | -18 | 128 | 117 | 96
O=C(NCc1cccnc1)c1cccc(C(=O)NCc2cccnc2)c1 | -5 | 106 | 119 | 96
Cc1ccc(NCc2cccn2-c2nnc(N3CCCCCC3)s2)cc1 | · | 103 | 78 | 94
COCCCNC(=O)C(=O)NCC(c1ccc2c(c1)OCO2)N1CCOCC1 (configuration not stated) | · | 98 | 98 | 92
CCN(CC)C(=O)C(N)Cc1ccccc1 (configuration not stated) | -8 | · | 109 | 91
CC(C)C1N(c2ccccc2)CCN1c1ccccc1 | -29 | 102 | 97 | 96
COc1ccc(NC(=O)c2cc(S(=O)(=O)N3CCCC3)ccc2OC)cc1 | · | 98 | 120 | 92
CCOC(=O)c1cccc(-n2nnc3c(sc4nc(C)c(Br)c(C)c43)c2=O)c1 | -25 | 100 | 102 | 90
Clc1ccc(SCCc2nc3ccccc3o2)cc1 | · | 99 | 92 | 74
CCCCCC(=O)Nc1nnc(CCOCCOCCc2nnc(NC(=O)CCCCC)s2)s1 | -10 | 113 | · | ·
CCOc1cc(C2C3=C(CC(c4ccc(Cl)cc4)CC3=O)Nc3onc(C)c32)ccc1O (configuration not stated) | -4 | 103 | · | ·
CCOc1ccccc1OCCCC(=O)O | -28 | · | 122 | 88
CN1C(=O)CSc2ccc(NC(=O)Nc3ccc(Br)cc3F)cc21 | -20 | 106 | · | ·
Cc1ccc(S(=O)CCOc2ccc(Cl)cc2Cl)cc1 (configuration not stated) | -1 | 103 | · | ·
CCOC(=O)c1nn(-c2ccccc2)c(=O)c2c(N)c(C#N)ccc12 | -54 | 110 | 86 | 76
COc1cccc(-c2nnc(SCC(=O)N3CCC(C)CC3)o2)c1 | -2&-24 | 107&99 | 112 | 69
O=c1c2sc3ccccc3c2n(Cc2cccc(F)c2)c(=O)n1Cc1ccccc1 | -12 | 103 | 94 | 85
Cc1cc2c(cc1S(=O)(=O)N1CCCC(C(=O)N3CCCC3)C1)OCC(=O)N2 (configuration not stated) | -15 | 99 | · | ·
CCN(CC)c1ccc(NC(=O)C(Cc2ccccc2)NS(=O)(=O)c2ccc(Br)s2)c(C)c1 (configuration not stated) | 1 | 105 | 105 | 109
C#C[C@]1(O)CC[C@H]2[C@@H]3CCc4cc(OC)ccc4[C@H]3CC[C@@]21C | -41 | · | 90 | 89
O=C(N/N=C/c1ccc(-n2ccnc2)cc1)c1ccc2c(=O)n3c(nc2c1)CCC3 | -24 | · | 77 | 95
CCOC(=O)c1c(S(=O)(=O)N2CCC(C(=O)N3CCN(c4ccc(F)cc4)CC3)CC2)c(C)n(C)c1C | · | 97&101 | 125 | 93
COC(=O)c1cc(COC(=O)/C=C/c2ccc(F)cc2)oc1C | -11 | · | 96 | 96
CCOC(=O)C1Nc2c(ccc(C(=O)O)c2C)C2C=CCC12 (configuration not stated) | -42 | 91 | 78 | 80
Cc1ccc(-c2nc(SCC(=O)Nc3cc(C)on3)c3c(=O)n(C)c(=O)n(C)c3n2)cc1 | · | 99 | 93 | 93
CN(C)C(=S)c1nc2ccccc2[nH]1 | -13 | 103 | 97 | 86
Cc1oc(CC(C)C)cc1C(N)=O | -14 | 99 | 83 | 84
CC(C)n1c(SCC(=O)NC2CC2)nnc1-c1ccco1 | -28 | 99 | 101 | 81
O=C1CC(Nc2ccccc2)C(=O)N1Cc1ccccc1 (configuration not stated) | -2 | 106 | 103 | 94
O=C(O)/C=C/c1ccc2c(-c3ccccc3)onc2c1 | · | 104 | 102 | 94
Cc1ccc(NC(=O)c2oc3ccccc3c2NC(=O)c2cc(-c3ccccc3)on2)cc1 | 21 | 98 | · | ·
Cc1ccc2c(c1)N(CC(=O)NC(C)C)C(=O)c1cccnc1O2 | 10 | 104 | 103 | 101
Cc1ccc(C)c2[nH]c(=O)c(CN(Cc3ccco3)Cc3nnnn3C(C)(C)C)cc12 | -7 | 100 | 101 | 98

Among those listed so far, three have bromine:
SMILES | HCMV NEC inh | GIV-Gai inh | Sa growth 42C | Sa growth 42C second temp
CCOC(=O)c1cccc(-n2nnc3c(sc4nc(C)c(Br)c(C)c43)c2=O)c1 | -25 | 100 | 102 | 90
CN1C(=O)CSc2ccc(NC(=O)Nc3ccc(Br)cc3F)cc21 | -20 | 106 | · | ·
CCN(CC)c1ccc(NC(=O)C(Cc2ccccc2)NS(=O)(=O)c2ccc(Br)s2)c(C)c1 (configuration not stated) | 1 | 105 | 105 | 109

Continuation.
SMILES | HCMV NEC inh | GIV-Gai inh | Sa growth 42C | Sa growth 42C second temp
CCOC(=O)c1ccc(NC(=O)NC2OC(CO)C(O)C(O)C2O)cc1 (configuration not stated) | -3 | · | 86 | 91
COC(=O)CCC(=O)c1cc2cc(Br)ccc2o1 | -42 | · | 98 | 93
CCc1ccc(NC(=O)N2CC3CCCN3c3ccccc32)cc1 (configuration not stated) | 7 | 103 | · | ·
Cc1ccc(C2CCCN2S(=O)(=O)c2c(C)cc(C)cc2C)cc1 (configuration not stated) | -30 | 108 | · | ·
CCC(CO)N=CC1=C(O)CC(c2ccccc2)CC1=O (configuration not stated) | -5 | 100 | 106 | 96
Cc1cccc(NCC(O)Cn2cnc3c2c(=O)n(C)c(=O)n3C)c1 (configuration not stated) | -5 | 105 | 89 | 79
O=c1/c(=C\c2ccccc2Sc2ccc(Cl)cc2)sc2nc3ccccc3n12 | 4 | 96 | · | ·
CCN1CCC(NC2c3ccccc3-c3ccccc32)CC1 | -9 | 103 | 92 | 113
Cc1cccc(N(CC(N)=O)C2SC(=O)N(Cc3cccc(C(=O)O)c3)C2=O)c1 (configuration not stated) | -10 | 102 | 106 | 86
COC(=O)c1cc(OC)c(OC)cc1NC(=O)c1c(-c2ccc(OC)cc2)oc2ccc(OC)cc12 | -17 | 105 | · | ·
Cn1cnnc1SCc1ccc(C(=O)N=Nc2c(O)n(C)c3ccccc23)cc1 | -106 | · | 96 | 86
COc1cccc(OC)c1OCC(O)CN1CCC(CN2C(=O)c3cccc4cccc(c34)C2=O)CC1 (configuration not stated) | -85 | 105 | · | ·
O=C(CSc1nnc(C23CC4CC(CC(C4)C2)C3)o1)NCCOc1ccccc1 | 0 | 104 | 99 | 102
N#CC(Cc1ccccc1)c1ccccc1 (configuration not stated) | -6 | 104 | 126 | 53
C=C1C2(C(=O)N3CCc4ccccc43)CCC(C2)C1(C)C (configuration not stated) | -9 | 107 | 104 | 96
O=C(NC(=O)N1CCCC1)c1ccc(Cl)cc1 | -19 | 95 | 98 | 102
O=C(CCC(=O)c1cccs1)Nc1ccc(F)c(F)c1F | -28 | · | 98 | 86
CC(=O)N1CCc2cc(S(=O)(=O)N3CCc4cc5cccc(C)c5nc43)ccc21 | -17 | 99 | · | ·
COc1ccc(CN(C(=O)COc2ccccc2OC)C2CCS(=O)(=O)C2)cc1 (configuration not stated) | · | 98 | 104 | 85
CCOc1ccc(N(CC)C(=O)c2nn(-c3ccc(OC)cc3)c(=O)c3c2c2ccccc2n3C)cc1 | -17 | 99 | 104 | 89

Screens (PubChem)
